# Assay outcomes: PubChem, PCMD
# Biofilm kill mix = mixtures killing C. albicans biofilm; actives 0.02% (n = 120,000); inhibition, % at 7.6 µM; AID 1242; C. albicans biofilm persisters + clotrimazole, fluorescence viability; primary screen in compound mixtures of four per well;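 active = inhibition above 30.3% in the primary screen of four-compound pools, then above 30% when the compound was retested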;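 also: compounds exposed to preformed 24 h biofilms for 48 h; the number belongs to the whole pool; some results filed as inactive read as strong as hits; inactives centre near 12; 0% = biofilm with clotrimazole alone and 100% = kill control; retested singly at about 60 µM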
#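 Probe or stimulus – Clotrimazole 50 µg/mL co-treatment · System – C. albicans biofilms · Schedule – 24 h biofilm formation, then 48 h compound exposure, 37 °C · Evaluation – percent inhibition of biofilm viability · Technique – 2-h Alamar Blue fluorescence, 535/590 nm excitation/emission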
# * marks the source's active call; other numbers are inactive results; & = joins results of further samples.
# Start of the data: the first 16 compounds as a preview:
compound,Biofilm kill mix
O=C(Nc1cccc(Cl)c1)c1ccc(F)c(S(=O)(=O)NCc2cccs2)c1,26.3
CCCCC1=CC2=CC(=O)C(C)(OC(=O)CC)C(=O)C2=CN1CC(C)C (stereo not given),9.0
CCOc1cc(NC(=O)c2ccccn2)c(OCC)cc1NC(=O)c1ccccc1,12.8
Cc1ccc2c(CN3CCOCC3)cc(=O)oc2c1,9.1
Cc1sc2nc(C3CC3)nc(NCCNS(=O)(=O)c3ccccc3)c2c1C,12.8
CCCN(CCC)C(=S)NC1CC2C=CC1C2 (stereo not given),12.5
O=C(c1cccc2ccccc12)N1CCN=C1SCc1ccc([N+](=O)[O-])cc1,5.3
Cc1ccc(-n2ccnc2SCC(=O)O)cc1C,-6.9
CCOC(=O)C1(CC2CCCCO2)CCN(Cc2nc(C(C)C)cs2)CC1 (stereo not given),21.4
NS(=O)(=O)c1ccc(NC2(C(=O)O)CCCC2)cc1,15.1
Cc1nn(Cc2ccccc2Cl)c2sc(C(=O)Nc3nccs3)cc12,26.4
CCCc1ccc(OCCNC(=O)C2CCCCC2)cc1,-0.6
Cc1ccc(OCC(O)Cn2nc(C)cc2C)cc1 (stereo not given),18.9
CCC1=[N+](CC(=O)c2ccc(C)cc2)CCn2c(C)ccc21,18.9
Cn1c(/C=C/c2cccc([N+](=O)[O-])c2)nc2ccccc2c1=O,4.6
OCCC1CN(C2CCN(c3ccccc3)CC2)CCN1Cc1ccc(F)c(F)c1 (stereo not given),22.3

# Main list (from the top)
compound,Biofilm kill mix
O=C(Nc1cccc(Cl)c1)c1ccc(F)c(S(=O)(=O)NCc2cccs2)c1,26.3
CCCCC1=CC2=CC(=O)C(C)(OC(=O)CC)C(=O)C2=CN1CC(C)C (stereo not given),9.0
CCOc1cc(NC(=O)c2ccccn2)c(OCC)cc1NC(=O)c1ccccc1,12.8
Cc1ccc2c(CN3CCOCC3)cc(=O)oc2c1,9.1
Cc1sc2nc(C3CC3)nc(NCCNS(=O)(=O)c3ccccc3)c2c1C,12.8
CCCN(CCC)C(=S)NC1CC2C=CC1C2 (stereo not given),12.5
O=C(c1cccc2ccccc12)N1CCN=C1SCc1ccc([N+](=O)[O-])cc1,5.3
Cc1ccc(-n2ccnc2SCC(=O)O)cc1C,-6.9
CCOC(=O)C1(CC2CCCCO2)CCN(Cc2nc(C(C)C)cs2)CC1 (stereo not given),21.4
NS(=O)(=O)c1ccc(NC2(C(=O)O)CCCC2)cc1,15.1

# Carrying on:
compound,Biofilm kill mix
Cc1nn(Cc2ccccc2Cl)c2sc(C(=O)Nc3nccs3)cc12,26.4
CCCc1ccc(OCCNC(=O)C2CCCCC2)cc1,-0.6
Cc1ccc(OCC(O)Cn2nc(C)cc2C)cc1 (stereo not given),18.9
CCC1=[N+](CC(=O)c2ccc(C)cc2)CCn2c(C)ccc21,18.9
Cn1c(/C=C/c2cccc([N+](=O)[O-])c2)nc2ccccc2c1=O,4.6
OCCC1CN(C2CCN(c3ccccc3)CC2)CCN1Cc1ccc(F)c(F)c1 (stereo not given),22.3
Cc1cc(C(=O)N(CCC#N)Cc2cccs2)no1,13.8
COc1ccccc1NC(=O)CN1CCC(c2nc3ccc(C)cc3[nH]2)CC1,2.2
COC(=O)c1ccc(NC(=S)N2CCN(C)CC2)cc1,8.2
CCN(CC)P(=O)(Nc1ccc(C)cc1Br)c1ccc(N(C)C)cc1NC(=O)c1ccco1 (stereo not given),9.4

# Additional records follow.
compound,Biofilm kill mix
Cc1ccc(-n2cc(C(=O)c3ccc(N4CCN(C)CC4)cc3)nn2)cc1Cl,7.2
Oc1cc(-c2ccccc2)c2ccccc2c1,10.6
O=C(CCCc1nc2ccccc2s1)NC(c1ccccc1)c1ccccc1,-0.6
O=c1[nH]c(/C(Cl)=C/c2c(F)cccc2Cl)nc2cc(Cl)ccc12,10.7
CCc1cccc(C)c1NC(=O)CNCc1ccccc1,14.3
Cc1cc(C)n2nc(C(=O)N/N=C/c3ccccc3Cl)nc2n1,0.8
COc1ccc(Cl)cc1NC(=O)CN1CCCC1,8.1
O=C(CCn1cnc2ccccc21)N/N=C/c1ccc(O)cc1,8.8
COc1ccc(NC2=NC(C)(CO)CS2)cc1 (stereo not given),16.1
CCn1c(CCCc2ccc(OC)c(C)c2)n[nH]c1=S,-1.7

# Later entries
compound,Biofilm kill mix
C/C=C/c1ccc(OCC(=O)OCC)c(OC)c1,12.1
CCOC(=O)c1ccc2nc(Nc3nc4ccc(F)cc4s3)sc2c1,7.7
COc1ccc(-c2[nH]ncc2CNC(C)c2ccccc2Cl)cc1F (stereo not given),15.3
COc1ccc(/C(N)=N/OC(=O)c2cccs2)cc1,18.4
C/C(=N\NC(=O)c1ccc2c(c1)OCO2)c1ccc(C(=O)O)s1,24.3
CCN1CCCC(CO)(Cc2ccccc2)C1 (stereo not given),14.4
Fc1nc(F)c(F)c(NCCCNc2c(F)c(F)nc(F)c2F)c1F,7.6
CC1CCN(C(=S)c2ccc(N(C)C)cc2)CC1,11.6
COc1cc(/C=C2\SC(N3CCc4ccccc4C3)=NC2=O)cc(OC)c1OC,19.0
CCn1c2ccccc2c2cc(/C=N/NC(=O)c3ccccc3C)ccc21,18.9

# Remaining list, next part
compound,Biofilm kill mix
COc1ccccc1Nc1nc(C)c(C(=O)Nc2ccccc2)s1,6.6
NC(=O)c1ccc(NC(=O)COC(=O)c2ccc([N+](=O)[O-])cc2)cc1,9.6
COc1ccc(N(CC(=O)NCc2ccccc2OC)S(=O)(=O)c2ccccc2[N+](=O)[O-])c(OC)c1,35.2
Cn1cccc1/C=N/NC(=O)c1cc(-c2cccs2)nc2ccccc12,9.4
COc1ccc(C(C[N+](=O)[O-])n2nc(C)cc2C)cc1 (stereo not given),10.1
COc1ccc(N2CCN(Cc3cc(OC)c(O)c([N+](=O)[O-])c3)CC2)cc1,18.9
O=C1CCC(C(=O)N2CCCC(C(=O)c3ccc4c5c(cccc35)CC4)C2)=NN1 (stereo not given),12.8
COc1ccc(C2=NN(C(=O)c3cccs3)C(c3ccccc3O)C2)cc1 (stereo not given),-7.4
COc1cc(CC(=O)Nc2ccccc2N2CCCCC2)cc(OC)c1OC,13.1
Cc1ccc(N2CC(c3nc4ccccc4n3C)CC2=O)cc1 (stereo not given),12.4

# The list continues:
compound,Biofilm kill mix
CC(=O)Nc1nnc(-c2c(-c3c(Cl)cccc3Cl)noc2C)o1,18.0
O=[N+]([O-])c1ccc(Cl)c2cccnc12,12.0
O=c1c(-c2ccc(Cl)cc2)[n+]([O-])c2ccccc2n1OCc1nc2ccccc2[nH]1,17.4
O=C(CCSCc1ccccc1Cl)NC1CCCCC1,4.9
COC(CNS(=O)(=O)c1cccc2nonc12)OC,29.3
O=C(COC(=O)C12CC3CC(CC(O)(C3)C1)C2)NC12CC3CC(CC(C3)C1)C2,-6.9
Cc1ccc(N/N=C(\C#N)C(N)=S)c(C)c1,7.5
COc1ccc(Nc2cc(C)c3ccccc3n2)cc1,6.1
Cc1ccc(S(=O)(=O)N2CCCCC2c2cccnc2)c(C)c1C (stereo not given),7.5
COc1ccc(N2CCN(C(=O)CN(C)S(=O)(=O)c3ccc4c(c3)c(=O)n(C)c(=O)n4C)CC2)cc1,8.6

# Remaining list, next part:
compound,Biofilm kill mix
COc1ccc(CNC(=O)CCSCc2ccccc2C)cc1,19.8
C/C(=N\NC(=O)OC(C)(C)C)c1ccccc1Br,0.4
CC(C)CCn1c(O)c(N=Nc2ccccn2)c2ccccc21,10.4
Nc1nc(C(F)(F)F)cc(=O)[nH]1,13.2
Cc1ccc(O)c(CCc2ccc(O)cc2)n1,17.2
NC(=O)c1c(NC(=O)CCCn2cnc([N+](=O)[O-])n2)sc2c1CCCC2,17.7
O=C(N/N=C/c1cc(Cl)ccc1O)c1ccc(Br)cc1,15.2
CC1(C)C(=O)OC(/C=C\c2cccc([N+](=O)[O-])c2)C(C)(C)C1=O (stereo not given),9.3
CCn1nc(C)c(CN2CCN(Cc3cccc(OC)c3)C(CCO)C2)c1C (stereo not given),-1.6
CC1CCN(C(=O)C2CCN(CC(C)c3ccccc3)CC2)CC1 (stereo not given),15.5

# The list goes on.
compound,Biofilm kill mix
O=C1c2cccc3c([N+](=O)[O-])ccc(c23)C(=O)N1Cc1cccnc1,21.3
Cc1cc(SCC(=O)OCC(=O)NCc2ccc3c(c2)OCO3)c(C)cc1Br,-4.0
CN1C[C@@H]2C(c3ccc(Cl)nc3)C3(c4ccc(C#N)cc4)CC2(C3)[C@H]1c1ccccc1 (stereo not given in full),17.9
Cc1[nH]n(-c2nc(-c3ccc(Cl)cc3)cs2)c(=O)c1N=Nc1ccc(O)cc1,16.8
CCOC(=O)c1nonc1NC(C)=O,13.4
Cc1cc(C)n2nc(SCC(N)=O)nc2n1,5.5
CCOC(=O)C(=O)Nc1ccc(Oc2ccccc2)cc1,7.2
O=C(Nc1ccc(Br)cc1Cl)NC1CC1,10.2
CCc1cccc(OCC(=O)Nc2ccc(S(=O)(=O)Nc3ccccn3)cc2)c1,9.6
Cc1cc(C(F)F)n2nc(C(=O)Nc3ccc(S(=O)(=O)N4CCCCCC4)cc3)nc2n1,-4.2

# Later entries.
canonical_smiles	Biofilm kill mix
O=C(/C=C/c1ccc([N+](=O)[O-])cc1)NCc1ccco1	17.5
CN(CCO)c1nc(N)c(C#N)c(CC#N)c1C#N	16.8
Cn1cnnc1SCC(=O)Nc1ccccc1F	17.7
CCS(=O)(=O)c1ccc(O)c(NC(=O)Nc2cccc3ccccc23)c1	9.6
Cn1c(-c2nnn(-c3ccc(F)cc3)n2)cc2ccccc21	13.4
CCCCc1nc2ccccc2[nH]1	-3.7
COC(=O)/C=C/c1ccc(-n2ccnc2)cc1	-1.5
Cc1cc(C)n2nnnc2n1	4.3
O=C(O)C(Cc1c[nH]c2ccccc12)N1C(=O)c2ccccc2C1=O (stereo not given)	28.1&24.7
O=C(CCc1ccccc1)c1nnc(-c2ccccc2)o1	16.2
Cc1ccc(-n2nc3ccc(NC(=O)/C=C/c4ccco4)cc3n2)cc1	6.0
O=C(N/N=C/c1ccc(O)cc1)Nc1cccc2nsnc12	7.4
NC(=S)N=Nc1c(O)n(Cc2ccc(F)cc2)c2ccccc12	20.0
Cc1ccc2nc3n(c(=O)c2c1)CCCCC3	19.8
O=C(Nc1cccnc1)c1cccnc1Cl	7.6
O=C(C1=C[C@@H](C2CCCCC2)C[C@@H](OCc2ccc(CO)cc2)O1)N1CCN(Cc2ccc3c(c2)OCO3)CC1	18.4
CCOC(=O)c1c(NC2=NS(=O)(=O)c3ccccc32)sc2c1CCC(C)C2 (stereo not given)	17.2
CCn1c(C(C)NC(=O)c2ccc(Cl)cc2)n[nH]c1=S (stereo not given)	23.0
COc1cc(/C=N/NS(=O)(=O)c2ccc(C(C)(C)C)cc2)cc([N+](=O)[O-])c1O	15.6
Cc1ccc(O)c(NC(=O)C2CCCCC2)c1	-0.9

# (next part)
canonical_smiles	Biofilm kill mix
O=C(Oc1c(Br)cc([N+](=O)[O-])cc1Br)c1cccnc1	13.6
CC(C)CSC1=NSC2=NC(=O)/C(=C\c3cccs3)C(=N)N12	16.7
Cc1ccc(C(=O)N2CCC3(CC2)Oc2ccc(Cl)cc2C(=O)C32CC(c3ccc(Cl)cc3)=NO2)s1 (stereo not given)	3.9
CCOc1ccc(N(C)S(=O)(=O)c2ccc3[nH]cc(C(=O)NCCOC)c(=O)c3c2)cc1	17.5
Cc1cc(C)cc(C(=O)NCC(=O)OCC(=O)N2c3ccccc3NC(=O)C2(C)C)c1	-4.3
CC(C)C1CC(c2ccccc2)(C(CN)CO)CCO1 (stereo not given)	19.4
CCc1cc2cccc(C)c2nc1SCC(=O)Nc1cc(C)on1	15.1
O=C(O)c1ccc(N=Cc2nc(-c3ccco3)oc2O)cc1	12.7
COc1ccc(-n2cc(-c3ccccc3)[n+]3c2CCCCC3)cc1	2.5
O=C(NCc1ccc2c(c1)OCO2)c1ccco1	6.0
CC(NCCC1(C(C)C)CCOC(C)(C)C1)c1cccs1 (stereo not given)	11.3
COc1cccc2c1OCC(CN1CCN(CCC(C)C)C(CCO)C1)=C2 (stereo not given)	37.4
O=C1CN(C(=O)COC(=O)c2cccc(OCc3ccccc3)c2)c2ccccc2N1	-3.3
Nc1ccccc1-c1nnn(CC(=O)N2CCCc3ccccc32)n1	9.5
COc1ccc(Br)cc1S(=O)(=O)Nc1ncccc1C	12.2
C=CCN(CC=C)S(=O)(=O)c1ccc(C(=O)Nc2sc3c(c2C(N)=O)CCCCC3)cc1	15.8
Cc1cc(S(=O)(=O)N2CCCC(C(=O)Nc3ccc(C(=O)O)cc3)C2)ccc1Cl (stereo not given)	-3.8
O=C1N/C(=N\N=C\c2cccs2)SC1Cc1cccc(Cl)c1 (stereo not given)	17.7
O=[N+]([O-])c1cnn(-c2nc(-c3ccco3)cc(C(F)(F)F)n2)c1	8.9
O=C(Nc1cccc(S(=O)(=O)N2CCCCC2)c1)c1c2c(nc3ccccc13)CCN(Cc1ccccc1)C2	10.9

# (continued)
canonical_smiles	Biofilm kill mix
Cc1nc2cc(C(=O)N3CCc4ccccc43)ccc2n1-c1ccc(F)c(F)c1	13.5
CC(C)(CSc1ccccn1)NS(=O)(=O)c1ccccc1	8.4
CCN(CC)S(=O)(=O)c1cccc(C(=O)Nc2ccc3c(c2)OCO3)c1	15.0
O=[N+]([O-])c1ccc(S(=O)(=O)Nc2nc3ccccc3nc2Nc2ccccc2)cc1	9.8
COc1ccc(C(=O)Nc2ccc3cn[nH]c3c2)c(OC)c1	13.1
CCOC(=O)c1c(NC(=O)C2CC(Cl)=CCC2C(=O)O)sc2c1CC(C)(C)OC2 (stereo not given)	14.5
O=C(c1ccccc1-c1ncc[nH]1)N1CCc2c([nH]c3ccccc23)C1c1ccccn1 (stereo not given)	-2.1
CC(NCc1ccc(S(N)(=O)=O)cc1)C(=O)N1CCc2ccccc21 (stereo not given)	17.3
COc1ccc(CCNC(=O)COc2ccc(S(=O)(=O)NCC(C)C)cc2Cl)cc1OC	12.4
COc1cc2c(cc1NC(=O)COC(=O)c1ccccc1)oc1ccccc12	7.3

# Only part of the results is shown; the hit share may differ from the screen's.
